FPR binder: human FPR ligands by binding competition, primary screen, cell-based, FPRL1 counter-screen, flow cytometry | FPR-expressing cells, fluorescent ligand binding | inhibition, %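 (tested at 6.7 µM)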 | 24,000 compounds, 0.74% hits;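 note: 0% = buffer wells and 100% = receptor blocker peptide wells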
Target sequence (P21462 whole entry, looked up): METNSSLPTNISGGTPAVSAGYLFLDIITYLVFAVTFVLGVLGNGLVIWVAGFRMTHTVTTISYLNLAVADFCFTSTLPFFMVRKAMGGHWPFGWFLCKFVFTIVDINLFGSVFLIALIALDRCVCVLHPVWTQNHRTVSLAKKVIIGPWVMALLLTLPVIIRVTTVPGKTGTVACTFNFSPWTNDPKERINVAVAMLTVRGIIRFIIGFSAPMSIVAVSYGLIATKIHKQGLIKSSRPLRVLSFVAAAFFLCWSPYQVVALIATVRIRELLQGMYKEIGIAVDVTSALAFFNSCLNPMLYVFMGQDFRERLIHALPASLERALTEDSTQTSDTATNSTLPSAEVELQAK
FPRL1 binder: human FPRL1 ligands by binding competition, primary screen, cell-based, FPR counter-screen, flow cytometry. FPRL1-expressing cells, fluorescent ligand binding inhibition. inhibition, %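 (tested at 6.7 µM)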. 24,000 compounds, 0.3% hits;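 note: 0% = buffer alone and 100% = receptor blocker peptide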
Target sequence (P25090 whole entry, looked up): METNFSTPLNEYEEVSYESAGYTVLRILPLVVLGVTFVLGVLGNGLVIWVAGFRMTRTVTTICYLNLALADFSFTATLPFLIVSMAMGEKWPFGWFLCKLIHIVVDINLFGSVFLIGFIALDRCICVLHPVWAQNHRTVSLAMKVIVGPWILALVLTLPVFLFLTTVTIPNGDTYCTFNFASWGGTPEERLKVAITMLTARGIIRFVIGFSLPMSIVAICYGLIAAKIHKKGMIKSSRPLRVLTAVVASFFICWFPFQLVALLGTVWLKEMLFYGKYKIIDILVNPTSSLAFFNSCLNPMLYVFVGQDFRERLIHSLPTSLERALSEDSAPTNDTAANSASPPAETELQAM
VCAM-1 inhibition: inhibitors of TNFa-induced VCAM-1 surface display, cell-based, plate reader, pooled HUVEC, TNFa stimulus (AID 454) | HUVEC TNFa-induced VCAM-1 surface immunofluorescence, plate reader; numbers were filed only for top-ranked candidate wells | 10,000 compounds, 0.2% hits | inhibition, % at 5 µM;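 active = compound among top-ranked inhibitors of TNF-induced VCAM-1 adhesion protein staining, with the hit upheld by image or statistical review; inactive = the rest, including hits rejected on review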;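 note: 0% = TNFa with vehicle and 100% = cells without TNFa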
VCAM-1 augmentation: enhancers of VCAM-1 display on endothelial cells, imaging, high-content imaging, pooled HUVEC, TNFa stimulus (AID 457) | calls only | 10,000 compounds, 0.2% hits | Pooled HUVEC, TNFa-induced VCAM-1 immunofluorescence imaging; hits of this screen are not shown here;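 active = a top-ranked rise in VCAM-1 staining upheld on image or statistical review; inactive = the rest, including candidates rejected on review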;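 note: compounds tested at 5 µM in the well; cells exposed to compound for 24 hours before fixing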
VCAM-1 down imaging: inhibitors of TNFa-induced VCAM-1 surface display, imaging, high-content imaging, pooled HUVEC, TNFa stimulus (AID 456); HUVEC TNFa-induced VCAM-1 surface expression, immunofluorescence imaging; numbers were filed only for top-ranked candidate wells; inhibition, % at 5 µM; hits with a dose series show IC50 in µM; 10,000 compounds, 0.2% hits;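 active = top tenth filtered wells with inhibition above zero that passed visual or statistical confirmation; inactive = the rest, including hits rejected on review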;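 note: 0% = stimulated vehicle wells and 100% = unstimulated cells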
Numbers without * were called inactive; i = inactive; · = no result given.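 Rule for the calls, unless noted: active = mean above 30%; inconclusive = self-fluorescent; inactive = the rest.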

SMILES | FPR binder | FPRL1 binder | VCAM-1 inhibition | VCAM-1 augmentation | VCAM-1 down imaging
CCOCCCNC(=O)C1CC(=O)N(C2CCCC2)C1 (configuration not stated) | -2 | 0 | i | i | i
O=C(O)c1ccccc1Nc1cccc(C(F)(F)F)c1 | 5 | 4 | i | i | i
COc1ccc(-c2noc(CCC(=O)N3CCN(c4cccc(C(F)(F)F)c4)CC3)n2)cc1 | 0 | -4 | · | · | ·
COc1cccc(CNC(=O)C2CCN(c3cnccn3)CC2)c1 | 18 | 8 | i | i | i
CC1Cc2cc(/C(O)=C3/C(=O)C(=O)N(CCCn4ccnc4)C3c3ccco3)ccc2O1 (configuration not stated) | 3 | -5 | · | · | ·
O=C(Nc1ccccn1)Nc1cccs1 | 15 | 14 | · | · | ·
CC(C)Oc1ccc(C2CC(=O)NC3=C2C(=O)CCC3)cc1 (configuration not stated) | 1 | 5 | · | · | ·
CCC1CCCCN1CCCNC(=O)c1ccc(CS(=O)(=O)Cc2ccccc2F)o1 (configuration not stated) | -5 | -3 | i | i | i
CCOc1ccc(-n2cc(C(=O)NCc3ccco3)c3cc(OC)c(OC)cc3c2=O)cc1 | 5 | 1 | · | · | ·
Cc1cccc(N2CCN(S(=O)(=O)c3ccc4c(c3)CCN4C(=O)CCC(=O)O)CC2)c1C | 0 | -1 | · | · | ·
O=c1oc2ccccc2c(N2CCCCC2)c1CN1CCCCC1 | 0 | 4 | i | i | i
O=C(c1ccccc1Br)N1CCN(c2ccccc2)CC1 | 1 | -2 | i | i | i
COc1ccccc1C(=O)n1nc(-c2cccnc2)nc1N | -3 | -4 | · | · | ·
Cc1ccc(NS(=O)(=O)c2ccc3c(c2)c(=O)n(C)c(=O)n3C)cc1F | 7 | 4 | · | · | ·
COc1cc(CN2CCSCC2)cc(OC)c1OC | -2 | -1 | i | i | i
Cc1nnc(SCc2ccccc2F)n1NCc1cccs1 | -2 | -2 | i | i | i
COc1ccccc1N1CCN(C(=O)CN(Cc2ccc(Cl)cc2)S(C)(=O)=O)CC1 | -3 | -4 | i | i | i
Cn1c(=O)c2c(nc(SCC(=O)NC3CCCCC3)n2C)n(C)c1=O | -1 | 4 | · | · | ·
COc1ccc(Cn2c(C)nc3c(c2=O)c2nc4ccccc4nc2n3Cc2ccco2)cc1 | 0 | -5 | i | i | i
O=C(CSc1nc2cc(Cl)ccc2s1)N1CCN(C(=O)c2ccco2)CC1 | -2 | -2 | i | i | i
O=C(Cn1ncc2c(=O)oc3ccccc3c21)NCCN1CCN(c2ccccc2F)CC1 | -1 | 0 | · | · | ·
COC(=O)C1C(=O)c2c([nH]c(C(=O)OC3CCCCCC3)c2C)CC1C (configuration not stated) | 2 | -6 | · | · | ·
CCOc1ccc(-n2c(SCC(=O)Nc3ccc(OC)cc3)nc3c(c2=O)SCC3)cc1 | -11 | -4 | · | · | ·
CCOC(=O)CC(=O)c1cc(OC)c(OC)c(OC)c1 | 0 | -4 | i | i | i
O=C(CSc1nnc(Cn2c(=O)sc3ccccc32)n1-c1ccccc1)Nc1nccs1 | 2 | -3 | i | i | i
CC1CCCC(N2CCN(C(=O)c3ccc(F)cc3)CC2)C1 (configuration not stated) | -5 | -4 | i | i | i
CC1CCN(c2nnc(N3CCC(C)CC3)c3ccccc23)CC1 | -1 | -3 | · | · | ·
CSc1nc(C)cc(OCC(=O)N2CCOCC2)n1 | -4 | -2 | i | i | i
COC(=O)CNC(=O)c1cn(CC(C)C)c(=O)c2cc(OC)c(OC)cc12 | 2 | -2 | · | · | ·
CCOC(=O)N1CCC(NC(=O)COc2cc(=O)n(C)c3ccccc23)CC1 | 4 | -8 | · | · | ·
CSc1nc(-c2ccco2)nn1C(=O)c1ccco1 | -4 | 1 | · | · | ·
CCCCOCCCNC(=O)c1ccc(NC(C)=O)cc1 | 0 | 4 | i | i | i
COc1ccc(-c2nc(CSCC(=O)N3CCN(C(=O)c4ccco4)CC3)c(C)o2)cc1OC | -4 | 7 | · | · | ·
CCOC(=O)C1CCN(C(=O)CCNC(=O)Cn2ccc3ccccc3c2=O)CC1 | -1 | 9 | · | · | ·
CC1CCN(C(=O)CSc2nnc(CNC(=O)COc3ccc(Cl)cc3)o2)CC1 | -4 | 7 | · | · | ·
OCCCc1nc2n(n1)C(c1ccccc1Cl)C=C(c1cccs1)N2 (configuration not stated) | -1 | -25 | · | · | ·
Cc1ccc2c(c1)NC(=O)C(CC(=O)NCCCN1CCN(c3cc(C)ccc3C)CC1)O2 (configuration not stated) | 7 | 1 | · | · | ·
O=C(Nc1ccccc1C(=O)N1CCCCCC1)c1cccc(S(=O)(=O)N2CCOCC2)c1 | 4 | -6 | i | i | i
CCCCCOC(=O)c1[nH]c2c(c1C)C(=O)C(C(=O)OC)C(C)C2 (configuration not stated) | 5 | -11 | · | · | ·
COc1ccc(-c2nnc3ccc(SCC(=O)N4CCN(c5ccccc5)CC4)nn23)cc1 | -2 | -6 | · | · | ·
O=C(CC1Oc2ccc(Cl)cc2NC1=O)NC1CCCCCC1 (configuration not stated) | 8 | 2 | i | i | i
CCOC(=O)c1oc2cccc(OC(C)=O)c2c1C | 3 | 2 | i | i | i
CCN1CCN(c2cc(C)c3cc(NC(=O)Cc4ccc(OC)c(OC)c4)ccc3n2)CC1 | 1 | 2 | · | · | ·
O=C(C1CCC1)N1CCc2cc(S(=O)(=O)NCc3cccnc3)ccc21 | -1 | -2 | · | · | ·
CCOC(=O)c1cccc(NC(=O)C2CCC(CNc3c(N4CCOCC4)c(=O)c3=O)CC2)c1 (configuration not stated) | -3 | 4 | · | · | ·
O=C(CCCCn1c(=O)c2ccccc2n(Cc2ccc(F)cc2)c1=O)NCc1ccco1 | 2 | 5 | · | · | ·
O=C(Nc1ccc(-c2noc(CCc3ccccc3)n2)cc1)c1cccnc1 | 13 | -3 | · | · | ·
O=C(NCCN1CCOCC1)NC1(C(F)(F)F)Oc2ccc(Cl)cc2O1 (configuration not stated) | 66* | -7 | i | i | i
Cc1noc(C)c1S(=O)(=O)N(CC(=O)N1CCCCCC1)c1ccc(C(C)C)cc1 | 14 | -2 | · | · | ·
O=C(c1sccc1-n1cccc1)N1CCCC1 | 0 | -1 | · | · | ·
COc1ccc2cc(CN(CCO)C(=O)c3ccc(Br)cc3)c(=O)[nH]c2c1 | 0 | -3 | i | i | i
O=C(C1CCN(c2nnc(-n3cccc3)s2)CC1)N1CCOCC1 | -3 | -4 | i | i | i
COc1cc(-c2nnc(SCc3c(F)cccc3Cl)o2)cc(OC)c1OC | -9 | -10 | i | i | i
CCC(c1c(C)n(C)n(-c2ccccc2)c1=O)c1c(C)n(C)n(-c2ccccc2)c1=O | 0 | 0 | i | i | i
CC(C)(O)C#Cc1ccc(C(=O)NCc2cccs2)s1 | 6 | 2 | · | · | ·
Cc1ccc(CNC(=O)c2cc3c(=O)n(C)c4ccccc4c3n2C)o1 | 2 | -4 | · | · | ·
Cc1n[nH]c(C)c1N1C(=O)c2cccc3cc(Br)cc(c23)C1=O | -3 | -5 | i | i | i
COC(=O)n1c(=O)oc2cc(S(=O)(=O)N3CCOCC3)ccc21 | 4 | 3 | · | · | ·
CCc1nnc(NC(=O)c2ccc(S(=O)(=O)NC3CCCCC3)cc2)s1 | -2 | -2 | i | i | i
CCc1cc2c(cc(C(=O)O)n2C)s1 | 0 | 0 | · | · | ·

Seven entries from above, sorted by formula weight, falling.
SMILES | FPR binder | FPRL1 binder | VCAM-1 inhibition | VCAM-1 augmentation | VCAM-1 down imaging
Cc1noc(C)c1S(=O)(=O)N(CC(=O)N1CCCCCC1)c1ccc(C(C)C)cc1 | 14 | -2 | · | · | ·
COc1ccc2cc(CN(CCO)C(=O)c3ccc(Br)cc3)c(=O)[nH]c2c1 | 0 | -3 | i | i | i
CCC(c1c(C)n(C)n(-c2ccccc2)c1=O)c1c(C)n(C)n(-c2ccccc2)c1=O | 0 | 0 | i | i | i
Cc1n[nH]c(C)c1N1C(=O)c2cccc3cc(Br)cc(c23)C1=O | -3 | -5 | i | i | i
CC(C)(O)C#Cc1ccc(C(=O)NCc2cccs2)s1 | 6 | 2 | · | · | ·
O=C(c1sccc1-n1cccc1)N1CCCC1 | 0 | -1 | · | · | ·
CCc1cc2c(cc(C(=O)O)n2C)s1 | 0 | 0 | · | · | ·

New compounds follow
SMILES | FPR binder | FPRL1 binder | VCAM-1 inhibition | VCAM-1 augmentation | VCAM-1 down imaging
CC1CCN(C(=O)CSc2nnc(Cc3cc(=O)[nH]c(=O)[nH]3)n2-c2ccc(Cl)cc2)CC1 | -2 | 3 | i | i | i
Cn1cc(CC(=O)N2CCN(c3ccc(Cl)cc3)CC2)c2ccccc21 | 8 | 5 | · | · | ·
CN1C(=O)CSc2ccc(C(=O)O)cc21 | 17 | 16 | · | · | ·
Cc1ccc(C)c(N2CCN(C(=O)c3cc4ccccc4oc3=O)CC2)c1 | 3 | -2 | · | · | ·
O=C(Nc1ccc(-n2nncc2-c2ccco2)cc1)c1cc2ccccc2oc1=O | 0 | 6 | · | · | ·
O=C(CSc1nccn1-c1cccc(Cl)c1)NC1CCCC1 | 3 | 4 | i | i | i
Fc1ccc(-c2nnc3ccc(N4CCCC4)nn23)cc1 | 22 | 10 | i | i | i
CCN1CCN(C(=O)c2ccc3c(=O)n(C4CCCC4)c(=S)[nH]c3c2)CC1 | -4 | 0 | i | i | i
COc1ccc(OC)c(C2C=C(c3ccc(C)c(C)c3)Nc3nnnn32)c1 (configuration not stated) | -10 | -2 | · | · | ·
COc1ccc2c(c1)CCc1c(C(=O)NC3CCCCC3)noc1-2 | 3 | 8 | · | · | ·
COc1ccc(-n2c(=O)c3ccccc3n(CC(=O)Nc3cc(C)on3)c2=O)cc1OC | 10 | -4 | · | · | ·
CCC(C(=O)O)n1c(C(F)(F)F)nc2ccccc21 (configuration not stated) | 10 | -4 | i | i | i
Cc1ccc(C)c(NC(=O)c2ccc3c(c2)N(Cc2ccc(F)cc2)C(=O)CS3=O)c1 (configuration not stated) | 1 | 0 | i | i | i
O=C(O)CN1CCN(Cc2ccccc2)C1=O | -3 | -7 | · | · | ·
Cn1c(-c2ccc(C(C)(C)C)cc2)n[nH]c1=S | -3 | -2 | i | i | i
CC1=C(C(=O)OC2CCCCC2)C(c2ccco2)n2ncnc2N1 (configuration not stated) | 2 | -15 | · | · | ·
COc1ccc(/C=N/c2nc3ccccc3n2C)cc1OC | 2 | -1 | · | · | ·
N#Cc1nc(-c2ccccc2Cl)oc1N1CCOCC1 | 6 | -3 | i | i | i
COC(=O)C1CCCN1C(C(=O)NC1CCCCC1)c1ccc(Cl)cc1 (configuration not stated) | -1 | 1 | · | · | ·
CCOc1ccc(N2CC(C(=O)NCCc3ccc(OC)c(OC)c3)CC2=O)cc1 (configuration not stated) | -3 | -3 | i | i | i
O=c1[nH]c(/C(=N\O)c2ccccc2)no1 | 1 | -4 | i | i | i
COc1cccc(C(=O)N(CN2CCCC2=O)c2cc(C)on2)c1 | -5 | -5 | · | · | ·
O=C(Nc1ccccc1)c1ccc(NCC2CCCO2)c(S(=O)(=O)N2CCOCC2)c1 (configuration not stated) | -5 | 1 | i | i | i
CCOc1ccc(C(=O)N2CCN(c3ccccc3)CC2)cc1OCC | -3 | 10 | i | i | i
O=C(CCCC(=O)OCC(=O)NC1CCCC1)Nc1ccccn1 | -14 | 0 | i | i | i
COc1ccc(/C(O)=C2\C(=O)C(=O)N(CCN(C)C)C2c2cccc(OC)c2OC)cc1Cl (configuration not stated) | 0 | 1 | · | · | ·
CCCCN(C)C(=O)c1oc2ccc(S(=O)(=O)N3CCCCCC3)cc2c1C | 2 | -10 | · | · | ·
COc1ccc2cc3c(N)nn(C(=O)Cc4ccccc4OC)c3nc2c1 | 6 | -5 | · | · | ·
COC(=O)Cn1c(C)nc2c(sc3nc(C)cc(C)c32)c1=O | 8 | 7 | i | i | i
O=C(CSc1ncn[nH]1)c1ccco1 | 0 | 5 | i | i | i
CCN(CCCNC(=O)CC1Oc2ccc(C)cc2NC1=O)Cc1ccccc1 (configuration not stated) | -5 | -1 | i | i | i
Cc1ccc(-c2ccc(=O)n(CC(=O)NCCN(C)C)n2)cc1 | -3 | 1 | · | · | ·
O=C(NCCO)c1cccc2c1C(=O)c1ccccc1-2 | -4 | 0 | i | i | i
O=C(CNS(=O)(=O)c1cccs1)N1CCc2ccccc2C1 | 2 | 3 | · | · | ·
O=C(NCCN1CCOCC1)NC1(C(F)(F)F)Oc2ccccc2O1 | -2 | 3 | · | · | ·
COc1ccc(N(CC(=O)NCCSC(C)(C)C)S(C)(=O)=O)c(OC)c1 | 1 | 4 | i | i | i

Compound activity from PubChem.

An excerpt; the hit share may differ from the screen's.
